# Six1-Eya2 blk = qHTS Assay for Inhibitors of the Six1/Eya2 Interaction | Homeobox protein SIX1 (Homo sapiens) + Protein phosphatase EYA2 (Homo sapiens), … | AlphaScreen GST-Six1/His-Eya2 binding, biochemical; hits give low values; control for the full effect not named in the record | activity change, % (no concentration beside the values) | actives 0.56% (n = 360,000) | AID 651725, 2012; in the data active = activity change below about -65%; inconclusive = about -30% to -65%; inactive = above about -30%; note: % is set by controls: 0 for no effect and ±100 for the full control effect; compound concentration not given in the record
#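 Homogeneous AlphaScreen proximity assay pairing GST-Six1 with His-tagged Eya2 (added as 5X mix: 250 nM and 500 nM) in 50 mM Tris pH 8.0, 300 mM NaCl, 1 mM TCEP. Glutathione donor and nickel acceptor beads; 1 h, 37 °C, dark.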
# D2 agonist = Beta-Arrestin HTS for Positive Allosteric Modulators of the Human D2 Dopamine Receptor: Agonists; D(2) dopamine receptor (Homo sapiens), P14416; DiscoveRx PathHunter D2 beta-arrestin, luminescence, 90 min; 100% = 57 uM dopamine signal; activation, % (concentration not given with the values); actives 0.084% (n = 360,000); AID 624465, 2012; in the data active = activation above about 40%; inconclusive = about 15% to 40%; inactive = below about 15%; note: compound concentration not given in the record; the text of the record calls up to 30% inactive
# Target sequence (P14416 whole entry, looked up): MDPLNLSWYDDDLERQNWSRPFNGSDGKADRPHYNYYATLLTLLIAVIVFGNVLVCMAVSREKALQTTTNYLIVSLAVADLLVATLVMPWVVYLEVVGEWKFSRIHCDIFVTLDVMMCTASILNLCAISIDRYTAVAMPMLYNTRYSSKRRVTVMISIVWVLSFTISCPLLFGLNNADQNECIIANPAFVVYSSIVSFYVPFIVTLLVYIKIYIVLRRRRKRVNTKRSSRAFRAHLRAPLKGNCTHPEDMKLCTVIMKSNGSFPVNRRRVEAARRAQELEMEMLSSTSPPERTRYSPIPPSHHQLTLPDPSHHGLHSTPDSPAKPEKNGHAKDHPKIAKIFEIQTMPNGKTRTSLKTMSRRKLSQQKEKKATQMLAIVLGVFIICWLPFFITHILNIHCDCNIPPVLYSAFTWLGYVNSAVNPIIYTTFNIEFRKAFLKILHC
#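 Agonist mode: compounds alone added to overnight-plated D2 PathHunter cells for 90 min at 37 C, with 57 uM final dopamine (EC100) defining full response. Beta-arrestin recruitment detected by chemiluminescent reagent, read after 1 h at ambient temperature.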
# gsp agonist = qHTS for Agonist of gsp, the Etiologic Mutation Responsible for Fibrous Dysplasia/McCune-Albright Syndrome: qHTS; gsp mutant cells, cAMP HTRF, 30 min; control for the full effect not named in the record; Potency, µM (highest dose often 76.9 µM), for inactives: at the top dose activation (cAMP increase), most hits filed as activators; actives 0.13% (n = 340,000); AID 624287, 2012; active = well fitted activation curve with a large enough effect; inconclusive = small, poorly fitted or top-dose-only effect, or another doubt; inactive = no such curve, though single readings can be large or run the other way; cell line not stated here;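 note: phosphodiesterase inhibitor Ro 20-1724 added with compounds to block cAMP breakdown; potency is the fitted concentration of half-maximal effect; nearly all actives have a fitted effect of over 60% in size; about a fifth of the inactives were tested at one dose only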
#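 Cells in DMEM/10% FBS with G418 were pretreated with compounds in DMSO plus […] (300 uM stock) for 30 min at 37C. cAMP was measured by HTRF (cAMP-d2 plus anti-cAMP antibody-K) after 30 min at room temperature.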
# D2 potentiator = Beta-Arrestin HTS for Positive Allosteric Modulators of the Human D2 Dopamine Receptor: Potentiators. D(2) dopamine receptor (Homo sapiens), P14416. DiscoveRx D2 beta-arrestin cells, luminescence, 90 min; 100% = 57 uM dopamine signal. potentiation, % (test concentration not listed). actives 0.23% (n = 360,000); active = potentiation of 50% or more; inconclusive = 30% to 50%; inactive = 30% or less;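 note: compound concentration not given in the record; tested on top of an EC20 dose of dopamine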
#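 PathHunter beta-arrestin assay in DiscoveRx D2 cells. Compounds were added with an EC20 of dopamine (50 nM final) for 90 min at 37 deg C. Luminescence was read 1 h after detection reagent, with 57 uM dopamine as the EC100 control.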
# CtBP-E1A inh = qHTS Assay for Inhibitors of the CtBP/E1A Interaction; CtBP / adenovirus E1A interaction (AlphaScreen); AlphaScreen GST-E1A/His-CtBP binding, 1536-well; hits give low values; control for the full effect not named in the record; activity change, % (concentration not given with the values); actives 0.49% (n = 340,000); AID 651724, 2012; in the data active means activity change below about -65%; inconclusive means about -30% to -65%; inactive means above about -30%; note: % is set by controls: 0 for no effect and ±100 for the full control effect
#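 Protein mix (5X: 125 nM each GST-E1A, His-CtBP) was incubated with pinned compound 2 h at 37 deg C in dark, in 50 mM Tris pH 8.0 buffer with 300 mM NaCl. Glutathione donor and nickel acceptor beads followed; AlphaScreen signal read after 1 h.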
# gsp antag = qHTS for Antagonists of gsp, the Etiologic Mutation Responsible for Fibrous Dysplasia/McCune-Albright Syndrome: qHTS; gsp-mutant cells, cAMP HTRF, 30 min; control for the full effect not named in the record; Potency, µM (highest dose often 76.9 µM), without a hit: top-dose activity change, negative = inhibition, hits mostly inhibitors; actives 0.4% (n = 340,000); active = falling curve of any shape with a large fitted effect; inconclusive = falling curve, mostly with a smaller effect; inactive = flat or rising curve; cell line not stated here;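 note: intracellular cAMP measured with PDE inhibitor Ro 20-1724 present during compound exposure; potency is the fitted concentration of half-maximal effect; % is set by controls: 0 for no effect and ±100 for the full control effect; nearly all actives have a fitted effect of over 65% in size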
#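 Measurement of cellular cAMP by homogeneous time-resolved fluorescence following a 30 min compound exposure at 37C. The PDE inhibitor […] was present throughout; the assay buffer was DPBS with 0.05% BSA and 0.005% Tween 20.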
# An asterisk follows results filed as active; ? = inconclusive; . = not tested or not shown; [ ] = dose if it differs, or a comment.
SMILES,Six1-Eya2 blk,D2 agonist,gsp agonist,D2 potentiator,CtBP-E1A inh,gsp antag
CC12C=CC(=O)C=C1CCC1C2C(O)CC2(C)C1CCC2(O)C(=O)CO (stereo not drawn),-3,1.4,.,-1,-4,-4%
CN1CCN(c2ncnc3c2ncn3[C@H]2CN(Cc3ccco3)C[C@@H](CO)O2)CC1,2,-1.2,.,-16,-1,.
CCCn1c(N)c(NCCN2CCOCC2)c(=O)n(CC(=O)NCc2ccccc2)c1=O,1,-2.7,-20%,-1,.,10%
Nc1ccn(CC(=O)N2CCN(c3ccccn3)CC2)c(=O)n1,-6,-3.1,.,-6,-18,-2%
NC(=O)C1CCCN(C(=O)c2ccc3c(c2)NC(=O)CS3)C1 (stereo not drawn),-2,-3.6,-50%[inhibitor],4,.,5%
COc1ccc(CCNCC(C)c2ccccc2)cc1 (stereo not drawn),8,0.7,-4%[15.4 µM],-13,6,15%
COc1ccc(CNC(=O)Nc2ccc3c(c2)N(C)C(=O)CS3)cc1,-1,8.5,0%,-2,.,-12%
CCCn1c(-c2cccc([N+](=O)[O-])c2)nc2c1c(=O)[nH]c(=O)n2Cc1ccccc1,-6,-4.0,11%,-1,5,9%
Cc1ccc(S(=O)(=O)N2[C@@H](c3ccc(F)cc3)C(C(=O)O)=CC[C@H]2c2cccc(Cl)c2)cc1,2,-3.0,-2%,-3,6,-18%
CC(C)(C)OC(=O)NCc1ccc(CNC(=O)c2[nH]cnc2C(=O)Nc2ccccc2F)cc1,2,0.9,27%,.,-25,.
C=CCOC(=O)c1cc(-c2ccc(/C=C3\C(=O)NC(=O)C(C#N)=C3C)o2)ccc1Cl,?,-1.0,1%,2,-1,-4%
C/C=C(\C)C(=O)N1CCC(C(=O)c2ccccc2)CC1,11,8.9,-4%,-2,0,12%
CCCCn1c(-c2nonc2N)nc2ccccc21,13,-1.5,2%,-21,8,?
CC(=O)N1CCc2c(sc(NC(=O)Cc3ccccc3)c2C#N)C1,-1,-1.5,25%,-3,5,11%
O=C(CC(c1ccccc1)c1ccccc1)Nc1ccc2c(c1)OCCO2,-3,-3.7,1%,-7,-1,-15%
Cc1ccc([N+](=O)[O-])cc1NC(=S)NC(=O)CC(C)(C)C,-5,-3.0,-4%,-10,-11,-21%
COc1ccc(OCC(=O)Nc2nc3cc4c(cc3s2)OCCO4)cc1,13,-0.4,-18%,-3,-3,-1%
O=C(c1cc(COc2ccc(F)cc2F)on1)N1CCOCC1,-2,2.5,?,2,.,3%
Cn1cnnc1SCc1ccc(C#N)cc1Cl,4,0.7,-5%,3,6,4%
Cc1cccc(Nc2ncnc(N)n2)c1,2,8.6,0%[15.4 µM],-1,.,9%
CCCCn1c(N)c(N(CC(C)C)C(=O)c2ccc(N(C)S(=O)(=O)c3ccc(C)cc3)cc2)c(=O)[nH]c1=O,1,4.0,-6%,-1,16,11%
CCC(C)(C)NC(=O)Cn1c(-c2ccc(C)cc2)noc1=O,-1,-3.1,-10%[15.4 µM],1,15,7%
CCOC(=O)Cn1nc(-c2ccc(Cl)cc2)cc1N,-1,-1.8,16%,-8,0,-8%
CCOc1ccccc1NC(=O)CCNC(=O)c1ccc(Cl)cc1,7,-0.8,-6%[15.4 µM],-4,-8,-6%
Cn1nnnc1SCc1ccc(F)cc1,14,0.0,-1%,-10,-2,3%
COc1ccc(C(=O)N2CCC3(CC2)NCCc2[nH]cnc23)cc1,1,-1.0,-4%,-5,.,-1%
O=C(NCCN1CCOCC1)C(=O)NCC1OCCN1S(=O)(=O)c1cc(F)ccc1F (stereo not drawn),0,-2.5,-64%[inhibitor],6,9,3%
C/C(=N/N=C1/NC(=O)CC(C(=O)O)S1)c1ccccc1 (stereo not drawn),2,-6.1,11%,-6,0,9%
O=C(NC(=S)N1CCN(c2ccc([N+](=O)[O-])cc2)CC1)c1ccccc1Cl,-5,-2.3,-1%,-6,-15,-8%
O=C(CCCCCN1C(=O)c2cccc([N+](=O)[O-])c2C1=O)Nc1ccccc1F,0,8.9,9%,3,.,-28%
Cc1ccc(C(=O)NCCSC(C)(C)C)cc1[N+](=O)[O-],-9,-1.6,-8%,-15,0,0%
COc1ccc(Nc2nnc(-c3ccc(C(=O)NCCO)cc3)c3ccccc23)cc1,-5,-4.6,-84%[inhibitor],2,-20,-9%
Cc1ccc(Cl)cc1NC(=O)C1CCCN1S(=O)(=O)c1ccc(-c2ccc(=O)[nH]n2)s1 (stereo not drawn),-6,0.2,8%,2,5,?

# Structural class: the entries above containing a Cl atom (7)
SMILES,Six1-Eya2 blk,D2 agonist,gsp agonist,D2 potentiator,CtBP-E1A inh,gsp antag
Cc1ccc(S(=O)(=O)N2[C@@H](c3ccc(F)cc3)C(C(=O)O)=CC[C@H]2c2cccc(Cl)c2)cc1,2,-3.0,-2%,-3,6,-18%
C=CCOC(=O)c1cc(-c2ccc(/C=C3\C(=O)NC(=O)C(C#N)=C3C)o2)ccc1Cl,?,-1.0,1%,2,-1,-4%
Cn1cnnc1SCc1ccc(C#N)cc1Cl,4,0.7,-5%,3,6,4%
CCOC(=O)Cn1nc(-c2ccc(Cl)cc2)cc1N,-1,-1.8,16%,-8,0,-8%
CCOc1ccccc1NC(=O)CCNC(=O)c1ccc(Cl)cc1,7,-0.8,-6%[15.4 µM],-4,-8,-6%
O=C(NC(=S)N1CCN(c2ccc([N+](=O)[O-])cc2)CC1)c1ccccc1Cl,-5,-2.3,-1%,-6,-15,-8%
Cc1ccc(Cl)cc1NC(=O)C1CCCN1S(=O)(=O)c1ccc(-c2ccc(=O)[nH]n2)s1 (stereo not drawn),-6,0.2,8%,2,5,?

# 3 compounds out of the list above, arranged by the value under D2 agonist, highest first:
SMILES,Six1-Eya2 blk,D2 agonist,gsp agonist,D2 potentiator,CtBP-E1A inh,gsp antag
COc1ccc(C(=O)N2CCC3(CC2)NCCc2[nH]cnc23)cc1,1,-1.0,-4%,-5,.,-1%
Cc1ccc(C(=O)NCCSC(C)(C)C)cc1[N+](=O)[O-],-9,-1.6,-8%,-15,0,0%
O=C(NCCN1CCOCC1)C(=O)NCC1OCCN1S(=O)(=O)c1cc(F)ccc1F (stereo not drawn),0,-2.5,-64%[inhibitor],6,9,3%

# Bioassay records from PubChem BioAssay.
